Bfl-1 A1 inh: inhibitors of the anti-apoptotic protein A1, read as caspase activation; 330,000 tested, 0.066% active; AID 2462; MEF A1-2A-BIM cells, Caspase-Glo 3/7 luminescence, 3 h; percent of clofoctol response, vehicle zero; caspase activation, % (test concentration not listed);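 active = over half of replicate activation scores above 10%, or exactly half above 10 with the replicate mean above 10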;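 also: wells of about 30 µL received 50 nL stock; many hits fall short of the cut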
FGF22 binding: binders of recombinant human FGF22 by thermal shift; calls only at 9.99 µM; Q9HCT0; 340,000 tested, 1.5% active; AID 651658; SYPRO orange fluorescence; percent of sucrose octasulfate shift, DMSO zero;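 active = melting point raised past a set limit in the mean and every replicate; three in four hits are not shown here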
Target sequence (Q9HCT0 whole entry, looked up): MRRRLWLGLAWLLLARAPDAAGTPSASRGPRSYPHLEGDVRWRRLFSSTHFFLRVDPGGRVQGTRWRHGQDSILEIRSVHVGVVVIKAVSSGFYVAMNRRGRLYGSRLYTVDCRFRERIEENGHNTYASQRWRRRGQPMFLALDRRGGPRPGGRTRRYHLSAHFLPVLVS
MLL AF4-AF9 inh: MLL-AF4/AF9 protein interaction inhibition; 350,000 tested, 0.47% active; AlphaScreen, biotin-AF4 peptide binding to FLAG-AF9; inhibition, % at 10 µM; P42568; AID 651704;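 active = every replicate reaching a set inhibition limit, whatever the replicate mean, cut at about 25% in these data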;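 also: 0% = plate neutral control median and 100% = total signal loss; the record names both 10 and 1 µM as test concentration; the first replicate is given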
Target sequence (P42568 whole entry, looked up): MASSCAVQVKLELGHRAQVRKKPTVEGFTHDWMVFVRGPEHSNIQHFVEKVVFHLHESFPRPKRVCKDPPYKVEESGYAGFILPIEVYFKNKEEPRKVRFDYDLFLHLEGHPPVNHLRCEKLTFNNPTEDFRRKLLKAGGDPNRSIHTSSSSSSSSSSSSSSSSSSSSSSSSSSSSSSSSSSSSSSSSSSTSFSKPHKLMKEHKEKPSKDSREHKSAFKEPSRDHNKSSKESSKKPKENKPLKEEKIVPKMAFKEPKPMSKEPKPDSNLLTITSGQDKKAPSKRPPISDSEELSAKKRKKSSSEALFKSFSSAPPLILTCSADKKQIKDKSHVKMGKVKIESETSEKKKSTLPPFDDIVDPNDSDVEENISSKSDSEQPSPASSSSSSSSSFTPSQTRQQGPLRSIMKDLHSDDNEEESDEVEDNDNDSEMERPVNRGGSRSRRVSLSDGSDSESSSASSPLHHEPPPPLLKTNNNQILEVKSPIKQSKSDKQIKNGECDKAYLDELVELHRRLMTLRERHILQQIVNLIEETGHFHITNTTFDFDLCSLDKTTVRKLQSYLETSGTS
UCH37 inh: human UCH37 deubiquitinating enzyme inhibition; Q9Y5K5; purified proteasome/UCH37, Ub-AMC cleavage fluorescence; inhibition, % (concentration not given with the values); 330,000 tested, 0.33% active;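 active = mean of two replicates above 20%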;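 also: 0% = compound-free wells with enzyme and 100% = wells lacking proteasome; stock transfer was 100 nL into about 20 µL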
Target sequence (Q9Y5K5 whole entry, looked up): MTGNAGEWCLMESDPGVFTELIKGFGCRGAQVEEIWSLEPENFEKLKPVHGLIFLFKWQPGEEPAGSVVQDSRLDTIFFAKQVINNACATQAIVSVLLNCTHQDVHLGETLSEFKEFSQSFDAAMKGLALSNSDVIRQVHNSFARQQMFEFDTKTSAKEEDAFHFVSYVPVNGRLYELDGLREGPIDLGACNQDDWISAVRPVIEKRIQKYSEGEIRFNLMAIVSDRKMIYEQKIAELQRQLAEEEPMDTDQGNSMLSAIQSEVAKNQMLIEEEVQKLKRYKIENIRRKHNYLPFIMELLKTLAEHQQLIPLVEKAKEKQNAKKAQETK
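Signal – fluorescence, ex 355 nm, em 460 nm · System – Proteasome-bound UCH37 · Input – 0.15 nM proteasome as dispensed · Timing – 30 min preincubation with enzyme, 25 min cleavage at room temperature · Read-out basis – percent inhibition of cleavage signal versus uninhibited and no-proteasome wells · Medium – Tris-HCl pH 7.4 with ATP-MgCl2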
rRNA inh HTS: selective bacterial rRNA inhibition in E. coli; E. coli WT GFP vs humanized-ribosome RFP mutants, fluorescence, 24 h; stronger effect = lower value; DMSO median 0, no signal -100; GFP signal change (wild-type ribosome), % (test concentration not listed); 350,000 tested, 1.6% active; AID 720706;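 active = significant combined selectivity score with lowered wild-type GFP, culture density cut under 30%, mutant RFP and density less affected; inactive = any of these conditions unmet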; also: one replicate is shown; some compounds called inactive have numbers as strong as hits
T cruzi repl: T. cruzi replication inhibition | T. cruzi beta-gal in NIH3T3, luminescence, 90 h | inhibition, % (test concentration not listed) | 300,000 tested, 1.4% active;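 active = mean inhibition across valid replicates above about 55%, limit read from the data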;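 also: signal also drops with host cell toxicity which is not excluded here; 0% = plate median of DMSO wells and 100% = zero luminescence signal; higher percent means less beta-gal luminescence so fewer parasites; stock transfer was 50 nL into about 50 µL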
Ecoli growth: E. coli growth inhibition. Escherichia coli growth, OD600, 23 h; stronger effect = lower value. OD600 absorbance (no concentration beside the values). 330,000 tested, 0.21% active. AID 1053175;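 active = OD600 absorbance below the run mean of sample wells minus 3.6 SD, in any replicate, cut at about 0.56 in these data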;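 also: stock transfer was 300 nL into about 60 µL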
Beta cell apopt: blocks beta cell apoptosis | protection from apoptosis, % (test concentration not listed) | INS-1E cytokine-induced death, ATP luminescence, 48 h; percent of positive-control rescue, neutral wells zero | 300,000 tested, 0.8% active;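 active = all replicates at 75% or more, or half of them and the mean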;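 also: 0% = cytokine-treated negative control wells and 100% = positive control rescue; higher means more ATP so stronger rescue from cytokine killing; wells of about 40 µL received 100 nL stock; the first replicate is given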
rRNA inh HTS OD600: recorded beside rRNA inh HTS, whose call it bears; OD600 change, %; measured here: OD600 growth;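 optical density of the mix in the first replicate; 0 = DMSO median and -100 = no signal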
rRNA inh HTS RFP: recorded beside rRNA inh HTS, whose call it bears; RFP signal change, %; measured here: RFP humanized mutant strains;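 first replicate; 0 = DMSO median and -100 = no signal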
The depositor's hits bear a star; i = inactive; . = not tested or not shown. The list is partial. The share of hits here may be higher or lower than overall.

molecule	Bfl-1 A1 inh	FGF22 binding	MLL AF4-AF9 inh	UCH37 inh	rRNA inh HTS	rRNA inh HTS OD600	rRNA inh HTS RFP	T cruzi repl	Ecoli growth	Beta cell apopt
O=C(O)C1CCCN(S(=O)(=O)Cc2ccccc2)C1 (centres undefined)	0.1	i	0.0	-0.3	9	16	-2.0	-4	0.68	-1
CCC(Sc1nc(C)cc(C)n1)C(=O)O (centres undefined)	0.3	i	-0.5	2.1	0	-5	-5.9	2	0.66	-4
CC(=O)N(c1ccc2oc(=O)sc2c1)S(=O)(=O)c1cccc2cccnc12	-1.1	i	1.0	-0.7	7	4	0.7	-6	0.71	-1
O=C(COc1ccc(Br)cc1)Nc1ccccc1C(=O)N1CCOCC1	0.3	i	-0.3	2.7	11	7	4.3	-5	0.72	0
O=C(NCc1ccncc1)C(=O)N/N=C/c1ccccn1	0.9	i	-1.8	.	20	21	3.0	-9	.	1
CCc1cc2c(SCC(=O)N3CC(=O)Nc4ccccc43)ncnc2s1	-0.1	i	-2.6	1.5	0	-5	0.0	9	0.66	-1
COc1ccc(S(=O)(=O)N(Cc2ccccc2)Cc2nc3ccccc3c(=O)[nH]2)cc1	1.1	.	.	-0.9	.	.	.	-10	0.71	.
CCn1c(=O)cc(OCC(=O)N2CCc3ccccc32)c2ccccc21	.	i	0.2	5.5	7	10	-1.9	.	0.76	.
Cc1ccc(C)c(C(=O)COC(=O)C2CCN(c3ccc(C(F)(F)F)cn3)CC2)c1	-0.5	i	18	.	1	3	16	-10	.	-5
O=C(CCN1CCN(Cc2ccccc2)CC1)NNC(=O)Nc1cccc([N+](=O)[O-])c1	0.3	i	0.0	3.6	11	7	7.4	-1	0.69	-4
C=CCN1C(=O)/C(=C\c2cccs2)C(C(=O)OC)=C1C	0.6	.	.	5.1	.	.	.	-3	0.69	1
CC(=O)c1ccc(NC(=O)C2CCC(C)(C(=O)O)C2(C)C)cc1 (centres undefined)	0.7	.	.	3.3	.	.	.	0	0.71	-3
Cc1ccc(Cc2nnc(SCC(=O)Nc3ccccc3)[nH]c2=O)cc1	-0.9	i	1.5	2.8	1	8	1.5	3	0.62	-8
Cc1ccc(/C=N/N2CCCCC2)o1	-0.4	i	0.1	.	18	15	1.0	4	.	1
O=C(c1cc(COc2c(F)cccc2F)on1)N1CCSCC1	-0.4	i	-15	1.2	-4	0	-4.2	14	0.65	-7

Five entries from above, ordered by count of non-hydrogen atoms, largest number first:
molecule	Bfl-1 A1 inh	FGF22 binding	MLL AF4-AF9 inh	UCH37 inh	rRNA inh HTS	rRNA inh HTS OD600	rRNA inh HTS RFP	T cruzi repl	Ecoli growth	Beta cell apopt
O=C(CCN1CCN(Cc2ccccc2)CC1)NNC(=O)Nc1cccc([N+](=O)[O-])c1	0.3	i	0.0	3.6	11	7	7.4	-1	0.69	-4
Cc1ccc(C)c(C(=O)COC(=O)C2CCN(c3ccc(C(F)(F)F)cn3)CC2)c1	-0.5	i	18	.	1	3	16	-10	.	-5
O=C(COc1ccc(Br)cc1)Nc1ccccc1C(=O)N1CCOCC1	0.3	i	-0.3	2.7	11	7	4.3	-5	0.72	0
O=C(NCc1ccncc1)C(=O)N/N=C/c1ccccn1	0.9	i	-1.8	.	20	21	3.0	-9	.	1
C=CCN1C(=O)/C(=C\c2cccs2)C(C(=O)OC)=C1C	0.6	.	.	5.1	.	.	.	-3	0.69	1

Next results
molecule	Bfl-1 A1 inh	FGF22 binding	MLL AF4-AF9 inh	UCH37 inh	rRNA inh HTS	rRNA inh HTS OD600	rRNA inh HTS RFP	T cruzi repl	Ecoli growth	Beta cell apopt
CCc1nc(N2CCC3(CC2)OCCO3)c2nnn(Cc3ccccc3)c2n1	0.3	i	5.5	3.3	-28	-11	16	19	0.71	7
CCOC(=O)C(CC)Sc1nnc2cc(C)c3ccccc3n12 (centres undefined)	0.2	.	.	-7.1	.	.	.	14	0.73	-3
O=C1NC2(CCCC2)C(=O)N1CC(=O)N(Cc1ccccc1)c1ccccc1	-0.1	.	0.6	0.6	1	-9	-0.6	-3	0.68	-4
CC(=O)Nc1ccc(S(=O)(=O)Oc2ccc(/C=N/N=C3/NC(=O)C(CC(=O)O)S3)cc2)cc1 (centres undefined)	-0.6	i	-0.5	.	0	0	0.0	-13	.	-11
COC(=O)C(Cc1c[nH]c2ccccc12)N1CCS(=O)(=O)CC1 (centres undefined)	0.8	i	-1.3	2.7	24	16	4.7	5	0.71	-4
COc1ccc(Cc2nnc(SCC(=O)N3CCCC(C)C3)o2)cc1 (centres undefined)	-1.3	i	-2.0	5.3	0	-1	-1.8	-3	0.69	-8
CCOc1ccc(OCCSc2nnnn2-c2ccccc2)cc1	-0.1	.	.	3.3	.	.	.	12	0.73	-3
COc1ccc(N(C(C)=O)C2C=CS(=O)(=O)C2)c(OC)c1 (centres undefined)	-0.2	i	-40	1.8	15	10	3.9	-11	0.69	8
Cc1ccc(-n2ccc(-c3nn(-c4ccccc4)ccc3=O)n2)cc1	0.8	i	-0.3	1.9	9	3	-2.3	-12	0.67	-2
CC(=O)Nc1ccc(C)c(NS(=O)(=O)c2cccc(C(F)(F)F)c2)c1	0.8	i	2.7	5.9	3	-6	-5.6	6	0.68	1
CCCCn1c(O)c(N=NC(=O)c2ccco2)c2ccccc21	-1.3	i	1.3	10	1	-3	-2.7	10	0.69	7
O=C1CCc2cc(S(=O)(=O)N3CCN(Cc4ccc5c(c4)OCO5)CC3)ccc2N1	0.1	.	.	2.9	.	.	.	4	0.7	-2
Cc1cccc(N2CCN(C(=O)c3cc(S(=O)(=O)N4CCCC4)cn3C)CC2)c1C	0.5	i	2.6	0.7	-3	-32	1.0	-9	0.77	0
O=C(c1ccc(Br)o1)N1CCN=C1SCc1cccc(F)c1	-0.3	i	-12	9.9	4	-9	-4.1	21	0.76	.
COc1ccccc1NC(=O)Cc1cccc2ccccc12	0.2	i	2.8	5.3	-27	-29	-6.1	-2	0.7	-4

The last 2 records of the part before lead into the next.
molecule	Bfl-1 A1 inh	FGF22 binding	MLL AF4-AF9 inh	UCH37 inh	rRNA inh HTS	rRNA inh HTS OD600	rRNA inh HTS RFP	T cruzi repl	Ecoli growth	Beta cell apopt
O=C(c1ccc(Br)o1)N1CCN=C1SCc1cccc(F)c1	-0.3	i	-12	9.9	4	-9	-4.1	21	0.76	.
COc1ccccc1NC(=O)Cc1cccc2ccccc12	0.2	i	2.8	5.3	-27	-29	-6.1	-2	0.7	-4
CCOc1ccc(-c2cc(C(=O)N/N=C/c3ccc(O)cc3)c3ccccc3n2)cc1	0.1	i	1.7	.	12	7	2.2	19	.	1
Cc1nc(NC(=O)COC(=O)C(C)NC(=O)c2ccccc2)c(Cl)cc1Cl (centres undefined)	-0.2	i	-0.3	-1.4	6	2	3.9	.	0.71	-2
Cc1ccccc1C(=O)NCCOc1ccccc1Cl	-2.3	i	-2.7	5.1	1	2	1.8	-6	0.71	-1
Cc1cc(C)c(OCC(=O)N(Cc2cccs2)C2CCS(=O)(=O)C2)c(C)c1 (centres undefined)	1.0	i	-3.0	1.3	-5	-14	1.1	13	0.65	0
Cc1sc2ccccc2[n+]1CC(=O)c1ccccc1	-0.1	.	.	4.8	.	.	.	1	0.67	-6
O=C(CSc1ncn[nH]1)Nc1nc(-c2ccccc2)cs1	-1.3	.	.	28*	.	.	.	-9	.	-5
Cc1ccc(S(=O)(=O)Nc2cccc(C(=O)NCC(c3ccco3)N(C)C)c2)cc1F (centres undefined)	1.1	i	-0.3	0.4	3	10	4.5	3	0.67	3
COCCNC(=O)/C(C#N)=C/c1cc(C(C)C)c(OC)cc1C	0.4	i	4.6	0.2	-37	-30	-16	-5	0.65	0
O=C1CN(C(=O)COC(=O)c2cccs2)c2ccccc2N1	.	i	0.3	2.0	14	11	0.8	.	0.69	.
O=C(NCc1ccc2c(c1)OCO2)NC12CC3CC(CC(C3)C1)C2	0.0	i	3.6	5.8	-2	-6	-0.5	-11	0.68	-6
CCOC(=O)C1CCN(C(=O)c2ccc(Cl)c(Cl)c2)CC1	0.0	.	.	1.2	.	.	.	.	0.66	2
COc1ccc2nc(NC(=O)c3cccs3)sc2c1	-7.7	i	3.6	-153	.	.	.	11	0.69	18
CCN(CC)CCNC(=O)/C(=C/c1cn(CC)c2ccccc12)NC(=O)c1cc(OC)c(OC)c(OC)c1	1.0	i	5.0	9.4	0	-9	2.7	23	0.67	5
O=C(NC1CC1)c1cccc2c1C(=O)c1ccc(N3CCC(Cc4ccccc4)CC3)cc1S2(=O)=O	1.0	i	3.7	1.5	9	2	2.9	.	.	3
COc1ccc(N2CCN(CCNC(=O)CCN3C(=O)COc4ccccc43)CC2)cc1	-0.1	.	.	2.1	.	.	.	-1	0.69	-1
CC(OC(=O)CCCCCN=C1NS(=O)(=O)c2ccccc21)C(=O)Nc1cc(Cl)cc(Cl)c1 (centres undefined)	0.8	.	.	6.2	.	.	.	3	0.71	0
Cc1ccc(Cn2c(C(C)Nc3nc(-c4ccc(F)cc4)cs3)nc3cc(Cl)c(Cl)cc32)cc1 (centres undefined)	1.0	i	-0.1	-1.0	1	6	-6.2	-12	0.67	5
COc1cc(CC(=O)NCc2ccccn2)cc(OC)c1OC	-0.5	.	.	3.0	.	.	.	-13	0.76	0
CN(Cc1ccccc1)C(=O)CNC(=O)Cn1cnc2ccccc2c1=O	0.2	.	.	-0.2	.	.	.	-4	0.73	-6
COc1ccc(C(=O)NC(C)c2ccccc2)cc1Br (centres undefined)	0.4	.	-4.2	1.1	-25	-22	-3.1	-4	0.68	1
COc1cc(O)sc1C=Nc1ccc(Cl)cc1	-5.9	i	0.5	2.0	.	.	.	9	0.68	3
O=C(NC1CCN(S(=O)(=O)c2cccc(F)c2)CC1)c1cccc(F)c1	0.7	i	-0.7	4.7	3	9	-0.9	-16	0.7	-4
C=CCNC(=S)NNC(=O)c1cccn(Cc2ccc(Cl)c(Cl)c2)c1=O	0.6	.	.	0.0	.	.	.	-6	0.69	-5
CC(C)CCN1CCNC(=O)C1CC(=O)Nc1ccc(F)cc1 (centres undefined)	0.0	.	.	1.0	.	.	.	-11	0.69	-5
COc1ccc(CN2C[C@]3(CO)O[C@@H](CO)C[C@@H]3S2(=O)=O)cc1	.	i	-2.8	-1.4	11	12	3.3	.	0.71	.
O=C(c1ccco1)N(CCC(c1ccccc1)c1ccco1)Cc1ccccc1 (centres undefined)	0.8	i	0.6	-0.9	6	6	2.5	5	0.69	-15
Cc1nc2cc(NC(=O)Nc3ccc(N4CCOCC4)cc3)ccc2n1C	0.7	.	.	1.6	.	.	.	-6	0.66	-1
Cc1cc(Br)ccc1NC(=O)CNC(=O)Cc1ccc(S(=O)(=O)N2CCOCC2)s1	-0.2	.	1.2	.	-7	0	-1.2	4	.	1

Source: PubChem BioAssay
